INS promoter inh – TRM-6 insulin promoter activity inhibition. TRM-6 cells (human fetal islet line), insulin promoter-eGFP reporter, imaging; reporter expression induced with tamoxifen. inhibition, % at 2 µM. hit rate 0.9% among 130,000. AID 1273;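 active = inhibition above the mean plus 3 SD, with well images judged a real hit on visual review, cut at about 60% in these data, passing the limit was not always enough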
PKD1 kinase inh – PKD1 (human) kinase inhibition; Q15139; PKD1 kinase fluorescence polarization assay; inhibition, %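 (about 10 µM by stock and volumes)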; hit rate 0.056% among 200,000; AID 797;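 active = inhibition of 50% or more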;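 also: controls were vehicle for no effect and a reference inhibitor for full effect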
HSV augment – HSV replication enhancement; maximum fold increase; HSV replication augmentation in cells, fold increase; AID 1956; hit rate 0.005% among 220,000;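 active = peak rise of 1.5-fold or more in the series; tested in PC3 cells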;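 also: first round at 10 µM; read as green reporter fluorescence; hits show the peak of a series up to 25 µM; 1 = signal of infected wells without compound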
GALR2 ag – GALR2 (human) receptor agonism; O43603; GALR2-expressing cells, agonist activation read-out; activation, %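 (tested at 5 µM)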; hit rate 0.48% among 140,000; AID 803;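 active = above mean plus 3 SD of all compounds, about 5% in these data, not always enough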;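 also: 0% = vehicle buffer wells and 100% = reference agonist at full effect; tested in CHO reporter cells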
Target sequence (O43603 whole entry, looked up): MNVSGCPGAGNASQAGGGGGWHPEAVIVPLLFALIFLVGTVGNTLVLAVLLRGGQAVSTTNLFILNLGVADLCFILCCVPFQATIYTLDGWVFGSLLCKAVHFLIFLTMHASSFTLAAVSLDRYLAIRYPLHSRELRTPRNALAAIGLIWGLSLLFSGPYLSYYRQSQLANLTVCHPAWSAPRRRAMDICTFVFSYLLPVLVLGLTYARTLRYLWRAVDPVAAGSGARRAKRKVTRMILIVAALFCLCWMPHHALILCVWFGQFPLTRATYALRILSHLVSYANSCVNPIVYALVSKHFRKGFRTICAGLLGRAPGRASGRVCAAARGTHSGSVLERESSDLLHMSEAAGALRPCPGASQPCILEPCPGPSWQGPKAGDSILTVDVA
RGS16-Gao – regulators of human RGS16-Galphao interaction. O15492+P09471. bead-based flow cytometry RGS16-Galphao binding, fluorescence; actives lie on both sides. binding response (% of control), % at 10 µM. hit rate 0.38% among 220,000. AID 1441;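 active = below 25% or above 175%, edge rows of some plates excepted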;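 also: Galphao activated by GDP with aluminum fluoride before binding; 100% = wells without compound and 0% = beads without RGS; some results beyond the cut were filed as inactive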
Target sequence (O15492 whole entry, looked up): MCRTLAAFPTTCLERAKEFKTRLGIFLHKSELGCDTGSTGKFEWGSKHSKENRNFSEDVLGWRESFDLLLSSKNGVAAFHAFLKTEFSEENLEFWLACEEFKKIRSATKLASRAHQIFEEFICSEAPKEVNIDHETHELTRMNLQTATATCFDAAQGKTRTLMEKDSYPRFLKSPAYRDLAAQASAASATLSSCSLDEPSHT
Target sequence (P09471 whole entry, looked up): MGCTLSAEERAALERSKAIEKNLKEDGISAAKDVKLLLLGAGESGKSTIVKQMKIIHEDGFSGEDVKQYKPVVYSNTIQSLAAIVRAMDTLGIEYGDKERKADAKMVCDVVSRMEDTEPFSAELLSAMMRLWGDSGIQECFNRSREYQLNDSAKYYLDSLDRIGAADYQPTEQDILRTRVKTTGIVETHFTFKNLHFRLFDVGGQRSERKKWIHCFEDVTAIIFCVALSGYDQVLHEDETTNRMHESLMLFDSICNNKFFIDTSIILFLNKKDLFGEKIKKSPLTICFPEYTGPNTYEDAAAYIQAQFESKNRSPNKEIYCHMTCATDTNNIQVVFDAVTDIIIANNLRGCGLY
INS promoter inh cell count – further read-out of INS promoter inh, marked with its call; normalized cell count, %; measured here: cell count, toxicity; reference of the scale not given here;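 cells exposed to compound for 48 h; stained nuclei by imaging scaled within each plate; lower means fewer cells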
HSV augment primary fold – further read-out of HSV augment, marked with its call; fold increase; compound at 10 µM; measured here: primary screen fold increase 10 uM; tested in PC3 cells;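 GFP signal in the first replicate; 1 = infected wells without compound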
An asterisk follows results filed as active; i = inactive; / = no result given.

Every second line gives: INS promoter inh	INS promoter inh cell count	PKD1 kinase inh	HSV augment	HSV augment primary fold	GALR2 ag	RGS16-Gao
> COC(=O)C(C)N1C(=O)S/C(=C\c2cc(C)n(-c3ccccn3)c2C)C1=O (centres undefined)
 : 8	115	2	i	0.86	-3.5	102
> COc1ccc(-n2c(SCC(=O)N3CCCC(C)C3)nnc2-c2cccnc2)cc1 (centres undefined)
 : /	/	-3	/	/	0.3	101
> Nc1c(C(=O)Nc2ccc3c(c2)OCCO3)nnn1CCc1ccccc1
 : /	/	-2	i	0.67	-1.5	103
> CCn1c(C)c(C(C)=O)c(N2CCCC2)nc1=S
 : /	/	-2	i	1.1	-0.3	96
> O=C(CSc1ccc(-c2ccc(Cl)cc2)nn1)Nc1ccc2c(c1)OCCO2
 : /	/	-8	i	1	-0.9	102
> Cc1[nH]n(-c2ccccc2)c(=O)c1/C=N/NC(=O)c1ccoc1C
 : 47	109	-5	i	0.56	-1.7	99
> O=c1[nH]c(NCc2ccco2)nnc1Cc1ccccc1Cl
 : 29	133	3	i	0.79	-3.1	104
> Cc1nc2cc(NC(=O)Nc3ccc(Br)cc3)ccc2o1
 : /	/	6	i	0.92	/	103
> COc1ccc(C(=O)c2ccc(Br)cc2)cc1
 : 3	56	2	i	0.82	-1.6	98
> CC1=C(C(=O)OCC(C)C)C(c2ccccc2Cl)NC(=O)N1C (centres undefined)
 : /	/	-2	i	0.84	-3.2	106
> CCC(C)NCCOc1ccc(C(C)(C)c2ccccc2)cc1 (centres undefined)
 : /	/	-6	i	0.86	/	99
> Cc1c(NC(=O)c2ccc(N3C(=O)C4C5C=CC(C5)C4C3=O)cc2)c(=O)n(-c2ccccc2)n1C (centres undefined)
 : /	/	-19	i	0.92	-1.8	103
> CC(Sc1nc(=O)cc(N)n1CCc1ccccc1)C(=O)NCc1ccccc1 (centres undefined)
 : 18	170	-1	i	0.92	/	109
> CCOC(=O)C1(CC2CCCCO2)CCN(S(=O)(=O)c2ccccc2)CC1 (centres undefined)
 : /	/	-7	i	1	/	118
> O=C1CC(c2ccccc2)=NN1c1nc(-c2ccccc2)cs1
 : /	/	-8	i	0.97	/	101
> CCSCCOC(=O)C1=C(C)NC(=O)NC1c1ccc2c(c1)OCO2 (centres undefined)
 : /	/	2	i	0.92	-2.6	98
> O=C(CCC(=O)Nc1ccc(F)cc1)N/N=C/c1cc([N+](=O)[O-])ccc1O
 : /	/	-6	i	1.1	/	73
> Cn1nnnc1SCC(=O)N1CCN(c2ccccc2)CC1
 : /	/	-1	i	1.1	-2.1	115
> COc1cc(SC)ccc1C(=O)Nc1c(Cl)cncc1Cl
 : 11	116	-7	i	0.83	/	100
> Cc1ccc(SCC(=O)Nc2cccc(C(=O)NC(C)(C)C)c2)cc1
 : -7	108	-1	i	0.98	-3.6	99
> O=[N+]([O-])c1ccccc1S(=O)(=O)N1CCCCC1
 : -8	100	-3	i	1	-1.6	90
> COc1ccc(CNC(=O)CCSc2nc(-c3ccc4c(c3)OCO4)cc(C(F)(F)F)n2)cc1
 : -62	105	-2	i	1	-1.5	105
> Cc1cccc(Cc2nnc(CCC(=O)NCc3cnc4ccccn34)o2)c1
 : /	/	7	i	0.91	/	98
> O=C(NCCSCc1ccccc1)c1ccc(C2SCC(=O)N2Cc2ccccc2)cc1 (centres undefined)
 : -60	123	2	i	0.87	-2.2	115
> CC(=O)Nc1ccccc1C(=O)C(=O)Nc1cccc(F)c1
 : 18	76	6	i	1	-1.4	/
> O=C(NCCN1CCOCC1)c1cc2sccc2n1Cc1ccc(Cl)cc1
 : /	/	1	i	0.94	-1.9	102
> CCCn1c(SCC(=O)N2CCc3ccccc3C2)nc2c1c(=O)n(C)c(=O)n2C
 : 19	141	-8	i	0.98	-1.1	101
> COc1cc(C)ccc1OCCOc1c(Cl)cc(Cl)cc1Cl
 : -7	145	2	i	1.1	-1.9	101
> COc1ccc(C(c2nnnn2C2CCCC2)N2CCC(C(N)=O)CC2)c(OC)c1 (centres undefined)
 : /	/	-9	i	0.83	-0.3	101
> CN(CC(=O)NC(=O)NCc1ccccc1)Cc1ccc(Cl)cc1
 : /	/	-13	i	1	-0.5	98
> OCc1csc(=Nc2ccccc2)n1-c1ccccc1
 : -43	100	-6	i	0.99	-2.1	103
> Nc1c(NCCN2CCCCC2)c2ccccc2oc1=O
 : /	/	-8	i	0.95	/	76
> Cc1[nH]c2ccccc2c1C(O)c1ccncc1 (centres undefined)
 : 7	112	-2	i	1.1	/	97
> O=C(O)c1ccc(NS(=O)(=O)c2cc(Cl)ccc2Cl)cc1O
 : 31	123	-11	i	0.96	-4.0	90
> CCN(CC)S(=O)(=O)c1ccc(Cl)c(NC(=O)COC(=O)/C=C/c2cc(OC)c(OC)c(OC)c2)c1
 : -69	89	0	/	/	0.1	104
> CCCn1c(=S)[nH]c2cc(C(=O)NCC3CCCO3)ccc2c1=O (centres undefined)
 : /	/	-4	i	1.1	-1.0	56
> COc1ccc(/C=N/NC(=O)CCn2c3ccccc3c3ccccc32)cc1O
 : -4	17	-4	i	0.66	-1.7	103
> Cn1nc(N)nc1N1CCN(c2ccc(F)cc2)CC1
 : 7	120	4	i	0.92	/	100
> CC1(C)CC(NC(=O)c2ccccc2C(=O)NC2CC(C)(C)NC(C)(C)C2)CC(C)(C)N1
 : -14	96	3	i	0.92	/	99
> CC(c1ccco1)N(C(=O)CSc1ccc(Br)cc1)c1ccccn1 (centres undefined)
 : /	/	-2	i	0.83	0.5	100
> O=C(NCCCN1CCN(c2ccccc2F)CC1)C1CC(=O)N(C2CCCC2)C1 (centres undefined)
 : /	/	-5	i	1	-2.2	102
> Cc1ccc(NC(=O)CN(c2ccccc2)S(=O)(=O)N(C)C)cc1
 : -28	103	-10	i	0.98	-0.2	129
> CC(Oc1ccc(Cl)cc1Cl)C(=O)Nc1ccc(O)cc1 (centres undefined)
 : -29	53	-1	i	0.82	/	98
> C=CCOC(=O)C1=C[C@H](C2CC2)[C@@H](CCCO)[C@H](OCC)O1
 : /	/	1	i	0.82	/	98
> Cc1ccc(-c2c(C)n([O-])c3c([n+]2=O)CCC3)o1
 : /	/	-3	i	1	-3.0	102
> N#Cc1ccccc1OCC(=O)OCC(=O)c1ccc2c(c1)NC(=O)CO2
 : /	/	-4	i	1.1	-4.5	105
> Cc1cc(NCCO)c2cc(O)ccc2n1
 : 16	48	-3	i	1	-0.5	90
> O=C(COC(=O)c1cccnc1)Nc1ccc2c(c1)OCO2
 : /	/	-4	i	1.4	/	102
> COc1ccc(CCNC(=O)/C(C#N)=C2\N=C(NC(=O)c3cccs3)c3ccccc32)cc1
 : 48	88	-5	i	1.1	1.0	103
> FC(F)Oc1ccc(NC(=S)N2CCN(Cc3ccccc3)CC2)cc1
 : 67	48	1	i	0.88	/	171

More compounds
Every second line gives: INS promoter inh	INS promoter inh cell count	PKD1 kinase inh	HSV augment	HSV augment primary fold	GALR2 ag	RGS16-Gao
> CCC(C)C(NC(=O)C1CCC(C)CC1)C(=O)NCc1cccnc1 (centres undefined)
 : -50	74	-12	i	1.1	-2.4	73
> CCOC(=O)C(Nc1ccc2ccccc2c1)C(=O)OCC
 : 25	80	-2	i	0.59	-0.3	105
> COc1cccc(NC(=O)N2CCOCC2)c1
 : 0	86	-14	i	0.9	-0.4	103
> C/C(N)=C(/C#N)C(=O)COC(=O)COc1ccc(Cl)cc1
 : -44	48	2	i	1	-1.6	93
> Cc1ccsc1/C=N/NC(=O)Cc1cccn1C
 : 14	105	-9	i	0.92	-1.4	95
> NC(=O)CC(NC(=O)c1ccc(Br)cc1)c1ccc(N2CCC(Br)CC2)c([N+](=O)[O-])c1 (centres undefined)
 : /	/	/	i	0.93	/	97
> COc1cccc(C(=O)N2CCN(Cc3ccco3)CC2)c1OC
 : /	/	11	i	0.96	-0.2	111
> CC(=O)C(Sc1nc(NC(C)(C)C)nc(N(C)C)n1)C(C)=O
 : /	/	5	i	0.94	-1.8	100
> c1csc(-c2nc(CN3CCSCC3)cs2)c1
 : /	/	/	i	0.8	/	101
> COC(=O)C1CCN(c2ccc(Cl)nn2)CC1
 : /	/	-2	i	1	/	99
> COc1ccc(S(=O)(=O)Nc2c(F)cccc2F)cc1
 : /	/	1	i	1	/	101
> COc1ccccc1/C=C/C(=O)OCC(=O)Nc1ccccc1Sc1ccccc1
 : -15	141	-3	/	/	-0.4	66
> CC1(C)CC(=O)C2=C(C1)OC(N)=C(C#N)C2c1cccs1 (centres undefined)
 : 56	47	-3	i	1	/	112
> CC(=O)c1ccc(Sc2nnnn2-c2ccccc2)c([N+](=O)[O-])c1
 : 34	102	-1	i	0.7	0.4	104
> CCc1ccccc1NC(=O)CSc1nnc(Cn2cnc3ccccc32)o1
 : 53	178	0	i	1.1	-1.5	103
> COC(=O)c1c(O)cc(C(C)(C)C)n(-c2ccccc2)c1=O
 : 2	89	0	i	1.1	-1.4	101
> Cc1ccc(C2CC(C(F)(F)F)n3nc(C(=O)Nc4c(C)n(C)n(-c5ccccc5)c4=O)cc3N2)cc1 (centres undefined)
 : /	/	-13	i	0.94	/	98
> Cc1ccccc1S(=O)(=O)Nc1ncnc2scc(-c3ccccc3)c12
 : 5	61	4	i	1	-0.5	93
> Cc1ccccc1-c1nnc(SCC(=O)NC2CCCCC2)o1
 : -370	50	0	i	1	-3.5	104
> COc1ccc(Br)cc1CNC(=O)C1CCN(S(=O)(=O)N2CCCC2)CC1
 : /	/	-12	i	1.1	-0.4	97
> CCCCOCCCNC(=O)N[C@H](C(=O)OC)C(C)CC (some centres undefined)
 : /	/	/	i	0.85	/	91
> NC(=O)C1CCN(C2CC(=O)N(c3cccc(F)c3)C2=O)CC1 (centres undefined)
 : -27	84	-14	i	0.9	-0.9	103
> O=c1[nH]c2ccccc2nc1C(F)(F)C(F)F
 : 14	129	-3	i	1	-0.1	102
> COC(=O)c1ccc(NC(=O)CSc2nnc(-c3ccccc3)n2C)cc1
 : 38	144	5	i	1	-0.8	105
> Cc1cc(C)nc(/N=C(\N)Nc2cccc([N+](=O)[O-])c2)n1
 : 21	123	0	i	0.95	-0.9	102
> Clc1ccc(Oc2cnns2)cc1Cl
 : 53	178	-2	i	0.94	0.5	103
> CCc1nnc(NC(=O)c2ccc3c(c2)C(=O)N(C(C)(C)C)C3=O)s1
 : 5	126	-6	i	1.2	-0.3	103
> Cc1cccc(N=C2NN=C(c3c[nH]c4ccccc34)CS2)c1
 : -24	139	6	i	0.94	-0.3	92
> CCCC(=O)Nc1nnc(SCC(=O)NCc2ccc3c(c2)OCO3)s1
 : /	/	8	i	0.91	/	100
> O=C(c1cc(-c2ccccc2)nc2ccccc12)N1CCc2ccccc2C1
 : -10	108	-7	i	0.93	0.3	107
> COc1ccc(C2Nc3ccccc3C(=O)N2Cc2ccco2)cc1COc1ccc([N+](=O)[O-])cc1 (centres undefined)
 : -30	125	-3	i	1	-1.9	104
> COc1cc(Cl)cc(C2NC(=O)NC(C)=C2C(=O)NCc2ccccc2)c1O (centres undefined)
 : 49	126	-1	i	1.1	-1.0	82
> Cc1c(C(=O)OCCOc2ccccc2)[nH]c2c1C(=O)CCC2
 : 0	101	1	i	0.9	-0.9	102
> Cc1c[n+](C)ccc1CC1C([N+](=O)[O-])=C[N-]c2ncnn21 (centres undefined)
 : /	/	-12	i	1.1	/	94
> COc1cc2oc3ccccc3c2cc1N(CC(=O)N(C)C)S(=O)(=O)c1ccc(C)cc1
 : -33	90	-6	i	0.87	-1.6	104
> Cc1cc(C)c(NC(=S)NCCO)c(C)c1
 : /	/	/	i	1	/	105
> O=C(CSc1nc(N2CCCCC2)nc(N2CCCCC2)n1)Nc1nccs1
 : 54	148	2	i	0.92	-3.1	152
> CCOc1ccc(N(CC(=O)NC(C)CC)S(=O)(=O)c2c(C)noc2C)cc1 (centres undefined)
 : /	/	14	i	0.84	-0.2	83
> Cc1c(CN(C)C(=O)/C=C/c2ccc([N+](=O)[O-])cc2)cnn1C
 : /	/	-4	i	1.1	-2.3	104
> COc1ccc(-c2csc(-c3cccnc3)n2)cc1C
 : /	/	-3	i	1.1	/	112

Record cards (already shown).
Listed for COc1cc2oc3ccccc3c2cc1N(CC(=O)N(C)C)S(=O)(=O)c1ccc(C)cc1 → INS promoter inh: -33; INS promoter inh cell count: 90; PKD1 kinase inh: -6; HSV augment: i; HSV augment primary fold: 0.87; GALR2 ag: -1.6; RGS16-Gao: 104
Listed for Cc1c(C(=O)OCCOc2ccccc2)[nH]c2c1C(=O)CCC2 → INS promoter inh: 0; INS promoter inh cell count: 101; PKD1 kinase inh: 1; HSV augment: i; HSV augment primary fold: 0.9; GALR2 ag: -0.9; RGS16-Gao: 102

Screening data deposited in PubChem by several laboratories.

Hits appear at their usual frequency, and some 1.3% of all compounds hit somewhere here.
